# OXTR potentiator: potentiates the human oxytocin receptor response. CHO-OTR cells, Fluo-8 calcium fluorescence, potentiator mode; 0% = oxytocin EC15, 100% = EC100. activation, % at 3 µM. 320,000 tested, 0.061% active;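 active means activation above that plate's cutoff, the mean activation of tested compounds plus 3 SD, cut at about 6.6% in these data, passing the limit was not always enough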;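 further: 100% uses oxytocin at 75 nM as the full agonist control; some results filed as inactive read as strong as hits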
# Target sequence (P30559 whole entry, looked up): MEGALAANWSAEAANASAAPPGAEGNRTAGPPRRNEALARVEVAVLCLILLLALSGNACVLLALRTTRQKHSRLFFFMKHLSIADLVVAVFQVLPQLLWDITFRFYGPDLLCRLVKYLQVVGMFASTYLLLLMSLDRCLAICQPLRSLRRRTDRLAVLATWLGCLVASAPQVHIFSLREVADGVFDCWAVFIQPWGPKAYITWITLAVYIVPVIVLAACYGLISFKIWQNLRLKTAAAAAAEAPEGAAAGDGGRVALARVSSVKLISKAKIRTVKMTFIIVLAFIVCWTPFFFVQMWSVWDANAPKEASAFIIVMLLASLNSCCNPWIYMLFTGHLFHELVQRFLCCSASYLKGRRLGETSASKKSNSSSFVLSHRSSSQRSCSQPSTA
#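 Assay system: CHO cell line stably expressing human OTR | Also added: Oxytocin at about EC15, sub-maximal agonist stimulus | Times: Compound 6 min at room temperature before oxytocin, 100 s read | Measured by: Fluo-8 intracellular calcium fluorescence, ex 470-495, em 515-575 nm | Controls: EC15 oxytocin alone as 0%, 75 nM oxytocin as 100%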
# CHO-K1 Ca ag: nonselective activator or artifact in parental CHO-K1 cells. 360,000 tested, 0.48% active. Fluo-8 calcium fluorescence; scaled to maximal ATP response, vehicle zero. activation, % at 3 µM. AID 602248; in the data active means activation above about 15%;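 further: untransfected CHO-K1 host cells lacking M1 receptor as counterscreen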
# GPR7 antagonist: antagonists of human GPR7 (neuropeptides B/W receptor 1); P48145; GPR7-expressing cells, fluorescence antagonist assay; inhibition, % at 4.4 µM; 290,000 tested, 1.1% active; in the data active means inhibition above about 16%, passing the limit was not always enough;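 further: cells stimulated with the agonist NPW; 0% = agonist with vehicle and 100% = vehicle without agonist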
# Target sequence (P48145 whole entry, looked up): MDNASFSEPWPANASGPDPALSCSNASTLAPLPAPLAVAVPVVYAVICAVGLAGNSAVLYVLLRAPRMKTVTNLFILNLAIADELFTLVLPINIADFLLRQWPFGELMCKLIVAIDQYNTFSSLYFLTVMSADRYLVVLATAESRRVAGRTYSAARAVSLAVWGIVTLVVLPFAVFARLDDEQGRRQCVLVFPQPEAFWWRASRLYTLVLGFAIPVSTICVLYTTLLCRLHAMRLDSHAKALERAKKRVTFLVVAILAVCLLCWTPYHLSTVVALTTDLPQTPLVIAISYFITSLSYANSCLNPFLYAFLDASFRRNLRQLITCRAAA
# CHO-K1 Ca PAM: M1 PAM counterscreen hit in parental CHO-K1 cells | ATP EC20, Fluo-8 calcium fluorescence; 0% at ATP EC20, 100% at ATP max | AID 602247 | 360,000 tested, 0.02% active | activation, % at 3 µM;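 active means activation above the run cutoff, the mean activation of all test compounds plus 3 SD, cut at about 40% in these data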;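 further: peak over basal fluorescence ratio in a 140 s read after ATP addition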
# CHO parental Ca: counter-screen for OX1R antagonists: effect in parental CHO cells; parental CHO-K1, ATP-induced calcium, Fluo-8 fluorescence; inhibition, % at 5.6 µM; 330,000 tested, 0.63% active; AID 463079;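 active means inhibition above that plate's mean sample inhibition plus 3 SD, cut at about 26% in these data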;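 further: 0% = ATP-challenged DMSO wells and 100% = DMSO wells without ATP; some compounds past the cut are filed as inactive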
#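 Material: Parental CHO cells | Reagent: ATP | Compound dosing: Single nominal dose of 5.6 µM per compound | Detection: Intracellular calcium via Fluo-8 no-wash fluorescent dye | Read-out: % inhibition of ATP-induced calcium mobilization | Benchmarks: Low control ATP plus DMSO, high control DMSO only | Replicates: Singlicate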
# CHO-K1 Ca antag: nonselective inhibitor or artifact in parental CHO-K1 cells. ATP-induced calcium, Fluo-8 fluorescence. inhibition, % at 3 µM. 360,000 tested, 0.6% active. AID 602250;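 active means inhibition above a per-plate cutoff, the plate's mean sample inhibition plus 3 SD, cut at about 24% in these data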;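 further: 0% = DMSO plus EC80 ATP and 100% = DMSO alone without ATP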
# * hit, by the source's call; . = no result given; & = joins results of further samples; ! = not active in a repeat. This is a subset, so the mix of outcomes need not match the whole.
# Each structure is followed by: CHO-K1 Ca ag	CHO parental Ca	CHO-K1 Ca antag	GPR7 antagonist	CHO-K1 Ca PAM	OXTR potentiator
[1] O=C(O)CCCC[C@@H]1SC[C@@H]2NC(=O)N[C@@H]21
→ -0.4	-6.5	8.8	.	-3.5	-2.7
[2] CC1CCCN(c2c([N+](=O)[O-])c(=O)oc3ccccc23)C1 (configuration not stated)
→ 0.1	9.1	5.5	2.5	-13.6	-1.3
[3] CCCOC(=O)c1c(-c2ccc(OC)cc2)oc2ccc(-c3ccc(OC)nc3)cc12
→ -0.6	-14.4	-6.2	-20.8	-1.5	-1.8
[4] Cc1c(C(=O)N2CCc3ccccc3C2)oc2ccc(S(=O)(=O)N3CC(C)CC(C)C3)cc12 (configuration not stated)
→ -0.1	-27.2	10.0	1.8	2.9	-9.1
[5] CNCC(O)c1ccc(O)c(O)c1 (configuration not stated)
→ 0.7	-2.2	-1.8	.	12.3	-8.9
[6] CCc1cc(C(N)=S)ccn1
→ 0.8&0.7	-1.5&0.3	-5.7&0.8	-5.6	18.4&-0.4	0.3&-10.3
[7] COc1ccc(C=NCC2OCCc3ccccc32)cc1OC (configuration not stated)
→ 0.4	-4.1	-2.2	-8.1	15.2	-1.7
[8] NS(=O)(=O)c1cc2c(cc1Cl)NC=NS2(=O)=O
→ 0.5	-24.1	-4.0	-5.2	26.9	-6.2
[9] CCn1nc(C(=O)O)c(=O)c2cc3c(cc21)OCO3
→ -0.2	1.0	0.2	-2.3	-13.4	0.1
[10] CCCCC1=NC2(CCCC2)C(=O)N1Cc1ccc(-c2ccccc2-c2nn[nH]n2)cc1
→ .	-4.5	.	-9.4	.	-2.6
[11] COc1c(N2CCN[C@H](C)C2)c(F)cc2c(=O)c(C(=O)O)cn(C3CC3)c12
→ .	-3.5	.	5.9	.	-3.8
[12] O=c1[nH]ncc(N/N=C\c2cccs2)c1Cl
→ -0.2	1.6	-3.3	10.2	20.6	-9.7
[13] O=C(/C=C/c1ccc(O)cc1)c1ccc(O)cc1O
→ 1.0	-1.1	-6.8	-9.1	27.7	-4.3
[14] CCCCC[C@H](O)/C=C/[C@H]1[C@H](O)CC(=O)[C@@H]1CCCCCCC(=O)O
→ .	-20.2	.	.	.	13.9
[15] CC(=C1C(=O)c2ccccc2C1=O)N1CCc2ccccc2C1
→ 0.0	-23.6	-3.7	-11.7	15.8	8.7
[16] O=c1ccnc(NCCc2ccccc2)[nH]1
→ 0.3	-15.4	1.1	-9.6	5.0	-1.9
[17] CCOC(=O)C(NCCc1ccccc1F)(NC(=O)CC)C(F)(F)F (configuration not stated)
→ 0.2	-8.7	0.0	-7.9	-8.4	-1.9
[18] COc1ccc2cc([C@H](C)C(=O)O)ccc2c1
→ 0.3	1.9	5.7	-0.1	2.3	-8.2
[19] CCN1CN(CCc2ccccc2)CNC1=S
→ 3.6	-3.4	-13.5	-5.8	22.7	-0.5
[20] O=C(C1CCCCC1)N1CC(=O)N2CCc3ccccc3C2C1 (configuration not stated)
→ .	-9.3	.	-8.7	.	-5.4
[21] Cc1cc(=O)[nH]c(SCC(=O)NCCc2ccccc2)n1
→ 0.3	-5.1	-29.0	-6.4	13.4	2.6
[22] O=C(COc1ccc(F)cc1)NNC(=O)c1cc2ccccc2oc1=O
→ 0.7	-13.7	13.2	-10.2	-1.1	-0.1
[23] CC(=O)c1ccc2c3c(cccc13)C(=O)N(CCc1ccccc1)C2=O
→ -0.2	-15.2	4.8	-6.6	0.4	-4.9
[24] Clc1ccc(C(Cn2ccnc2)OCc2c(Cl)cccc2Cl)c(Cl)c1 (configuration not stated)
→ -0.1	60.2*	2.1	.	3.4	-20.4
[25] O=C(O)C1CC=CCC1C(=O)NCCc1ccccc1 (configuration not stated)
→ -0.2	-5.4	-14.5	-8.2	3.1	4.8
[26] CC(=O)c1cccc(OCC(O)CNCCc2ccc(Cl)cc2)c1 (configuration not stated)
→ 0.4	-17.2	-5.3	14.2	5.2	-5.8
[27] OC[C@@H](O)[C@@H](O[C@H]1O[C@H](CO)[C@@H](O)[C@H](O)[C@H]1O)[C@H](O)[C@@H](O)CO
→ 0.0	3.9	-0.2	-3.0	-0.4	-3.5
[28] O=C(NCCc1ccccc1)C1CCN(C(=O)c2ccc([N+](=O)[O-])cc2)CC1
→ -0.2	-10.9	3.7	-9.8	-2.8	-5.8
[29] COc1cc(C=NCC2OCCc3ccccc32)cc(OC)c1 (configuration not stated)
→ 1.7	-3.5	-0.5	-8.2	15.1	-1.9
[30] Cc1cccc(C)c1OCC(C)N (configuration not stated)
→ 0.3	-3.8	14.1	.	-4.8	-0.7
[31] Oc1ccc(C=NCC2COc3ccccc3O2)cc1 (configuration not stated)
→ 0.6	-4.1	-8.8	0.8	-0.5	-1.1
[32] Nc1nc2ncc(CNc3ccc(C(=O)N[C@@H](CCC(=O)O)C(=O)O)cc3)nc2c(=O)[nH]1
→ -0.1	-4.4	-6.2	-2.2	15.4	-1.2
[33] CNCCCC12CCC(c3ccccc31)c1ccccc12
→ 2.0&2.0&3.5	-1.2&-1.1&-3.7	-5.6&-3.6&-2.1	28.4*!	8.3&13.9&-4.8	-11.0&-6.9&-3.9
[34] Cc1ccc(-n2nc3c(=O)n(CC(=O)NCCc4ccccc4C)nc(C)c3c2C)cc1
→ -0.7	-14.1	-18.0	9.4	-17.8	-6.2
[35] Cn1c(NCCN(CCO)CCCc2ccc([N+](=O)[O-])cc2)cc(=O)n(C)c1=O
→ 0.1	-14.7	2.4	.	4.9	2.4
[36] Nc1ncnc2c1ncn2C1O[C@H](CO)[C@@H](O)[C@@H]1O (some centres not stated)
→ -0.1	3.6	8.3	.	-3.4	-4.0
[37] CSc1ccc(C(=O)c2[nH]c(=O)[nH]c2C)cc1
→ 0.8	-2.4	-5.2	.	12.6	-1.5
[38] CCC(c1nnnn1Cc1ccco1)N(CCc1ccccc1)Cc1cc2cc(C)ccc2[nH]c1=O (configuration not stated)
→ 0.1	-34.0	-11.2	.	18.6	-9.3
[39] CC(=O)c1ccc(NC(=O)c2ccc(COc3ccccc3[N+](=O)[O-])o2)cc1
→ 4.3	3.5	1.4	-0.2	4.2	-13.0

# A different layout for 14 compounds above.
26) CC(=O)c1cccc(OCC(O)CNCCc2ccc(Cl)cc2)c1 (configuration not stated)
27) OC[C@@H](O)[C@@H](O[C@H]1O[C@H](CO)[C@@H](O)[C@H](O)[C@H]1O)[C@H](O)[C@@H](O)CO
28) O=C(NCCc1ccccc1)C1CCN(C(=O)c2ccc([N+](=O)[O-])cc2)CC1
29) COc1cc(C=NCC2OCCc3ccccc32)cc(OC)c1 (configuration not stated)
30) Cc1cccc(C)c1OCC(C)N (configuration not stated)
31) Oc1ccc(C=NCC2COc3ccccc3O2)cc1 (configuration not stated)
32) Nc1nc2ncc(CNc3ccc(C(=O)N[C@@H](CCC(=O)O)C(=O)O)cc3)nc2c(=O)[nH]1
33) CNCCCC12CCC(c3ccccc31)c1ccccc12

entry no.,26,27,28,29,30,31,32,33
CHO-K1 Ca ag,0.4,0.0,-0.2,1.7,0.3,0.6,-0.1,2.0&2.0&3.5
CHO parental Ca,-17.2,3.9,-10.9,-3.5,-3.8,-4.1,-4.4,-1.2&-1.1&-3.7
CHO-K1 Ca antag,-5.3,-0.2,3.7,-0.5,14.1,-8.8,-6.2,-5.6&-3.6&-2.1
GPR7 antagonist,14.2,-3.0,-9.8,-8.2,.,0.8,-2.2,28.4*!
CHO-K1 Ca PAM,5.2,-0.4,-2.8,15.1,-4.8,-0.5,15.4,8.3&13.9&-4.8
OXTR potentiator,-5.8,-3.5,-5.8,-1.9,-0.7,-1.1,-1.2,-11.0&-6.9&-3.9

34) Cc1ccc(-n2nc3c(=O)n(CC(=O)NCCc4ccccc4C)nc(C)c3c2C)cc1
35) Cn1c(NCCN(CCO)CCCc2ccc([N+](=O)[O-])cc2)cc(=O)n(C)c1=O
36) Nc1ncnc2c1ncn2C1O[C@H](CO)[C@@H](O)[C@@H]1O (some centres not stated)
37) CSc1ccc(C(=O)c2[nH]c(=O)[nH]c2C)cc1
38) CCC(c1nnnn1Cc1ccco1)N(CCc1ccccc1)Cc1cc2cc(C)ccc2[nH]c1=O (configuration not stated)
39) CC(=O)c1ccc(NC(=O)c2ccc(COc3ccccc3[N+](=O)[O-])o2)cc1

entry no.,34,35,36,37,38,39
CHO-K1 Ca ag,-0.7,0.1,-0.1,0.8,0.1,4.3
CHO parental Ca,-14.1,-14.7,3.6,-2.4,-34.0,3.5
CHO-K1 Ca antag,-18.0,2.4,8.3,-5.2,-11.2,1.4
GPR7 antagonist,9.4,.,.,.,.,-0.2
CHO-K1 Ca PAM,-17.8,4.9,-3.4,12.6,18.6,4.2
OXTR potentiator,-6.2,2.4,-4.0,-1.5,-9.3,-13.0

# Entries of single compounds, quoted from the list:
# CNCCCC12CCC(c3ccccc31)c1ccccc12 is entered as CHO-K1 Ca ag = 2.0&2.0&3.5; CHO parental Ca = -1.2&-1.1&-3.7; CHO-K1 Ca antag = -5.6&-3.6&-2.1; GPR7 antagonist = 28.4*!; CHO-K1 Ca PAM = 8.3&13.9&-4.8; OXTR potentiator = -11.0&-6.9&-3.9
# Oc1ccc(C=NCC2COc3ccccc3O2)cc1 (configuration not stated) is entered as CHO-K1 Ca ag = 0.6; CHO parental Ca = -4.1; CHO-K1 Ca antag = -8.8; GPR7 antagonist = 0.8; CHO-K1 Ca PAM = -0.5; OXTR potentiator = -1.1

# From PubChem
